# High-throughput results deposited in PubChem by several laboratories.
# MT1-MMP act inh = blocks activation of human MT1-MMP. GFP/RFP ratio change, % at 20 µM. HT1080 RFP-PRO-GFP cells, GFP/RFP ratio fluorescence, overnight; percent of plate control window, DMSO zero. P50281. 360,000 compounds, 0.061% hits;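 active = GFP/RFP ratio change of at least 30% with cell ATP level not reduced by more than half and red fluorescence within 50% of control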; also: strong numbers were not always called active
#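 Material – HT1080 RFP-PRO-GFP cells · Control set – DMSO wells and RFP-L50D-GFP cells · Incubation – overnight cell settling, then overnight compound exposure, 37 °C, 5% CO2 · Compound dosing – single-point 20 µM compound, 1% DMSO · Read-out – GFP/RFP fluorescence ratio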
# UUG fidelity = alters start codon recognition fidelity in yeast | S. cerevisiae UUG-firefly luciferase reporter, luminescence/redox ratio | activity score, % at 18.7 µM | 350,000 compounds, 0.13% hits | AID 602363;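 active = replicate mean at a twofold rise or more, about +100% in these data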;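 also: firefly luciferase made from a UUG start codon reports start codon fidelity; reporter light over untreated wells divided by growth signal over untreated wells; some hits fall short of that in this replicate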
# CSC inhib = cancer stem cell inhibition. 300,000 compounds, 1.1% hits. inhibition, % at 7.5 µM. cancer stem cell-like cells viability, luminescence;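 active = mean at 75% or more and at least half the replicates too; tested in HMLE shEcad cells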;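 also: 0% = median of negative and 100% = median of positive control wells; the first replicate is given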
# eIF4H FP inh = inhibitors of RNA binding by human eIF4H. eIF4H fluorescence polarization binding assay. inhibition, % at 35 µM. 290,000 compounds, 0.94% hits;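 active = 50% or more with normal probe brightness, or confirmed in later tests; about a fifth of its hits are not listed in these tables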;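 also: calls also rest on retests at 20 µM and on dose response follow-up; 0% = protein and probe with vehicle and 100% = probe without protein; strong numbers were not always called active; many hits fall short of the cut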
# Rce1 inhib = inhibitors of yeast Ras-converting enzyme; Q03530; yeast membranes, quenched prenylated peptide cleavage fluorescence; calls only; 290,000 compounds, 0.27% hits; AID 2563;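 active = fall in fluorescence gain of 50% or more versus controls, with final raw signal at or below 3038400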;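 also: plate controls were neutral control wells for no effect and wells lacking membranes for full effect; tested at 10 µM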
# Target sequence (Q03530 whole entry, looked up): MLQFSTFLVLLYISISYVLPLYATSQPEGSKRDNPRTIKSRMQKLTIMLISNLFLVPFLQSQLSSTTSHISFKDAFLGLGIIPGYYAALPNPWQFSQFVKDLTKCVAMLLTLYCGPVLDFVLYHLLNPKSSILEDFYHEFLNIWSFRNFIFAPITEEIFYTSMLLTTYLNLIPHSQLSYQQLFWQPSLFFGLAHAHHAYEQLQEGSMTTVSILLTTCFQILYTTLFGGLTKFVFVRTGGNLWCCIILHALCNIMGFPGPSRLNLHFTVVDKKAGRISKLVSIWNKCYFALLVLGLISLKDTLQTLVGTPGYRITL
# PABP polyA inh = PABP-poly(A) binding inhibition; 290,000 compounds, 1% hits; P11940; inhibition, % at 35 µM; PABP-poly(A) RNA binding, fluorescence polarization;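 active = 50% or more with normal probe brightness, or confirmed in later tests; about a fifth of its hits are not listed in these tables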;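 also: calls also rest on retests at 20 µM and on dose response follow-up; controls were probe without protein and protein plus probe with vehicle; some compounds called inactive have numbers as strong as hits; many hits fall short of the cut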
# Env fusion inh = HIV envelope-mediated fusion inhibition. inhibition, % at 12.3 µM. HeLa-JRFL Env/CEM21 cell fusion, luciferase. 360,000 compounds, 1.1% hits. AID 651610;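 active = mean replicate inhibition score of at least 50 and every replicate individually at or above 50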;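 also: 0% = plate neutral controls and 100% = maraviroc near 300 nM; one replicate is shown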
# eIF4H FP inh retest = second read-out of eIF4H FP inh, no call of its own (marks repeat the call); inhibition, %; compound at 20 µM; confirmation average;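 mean of two retest wells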
# PABP polyA inh retest = further read-out of PABP polyA inh, marked with its call; inhibition, %; compound at 20 µM; confirmation repeats;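 mean of two retest wells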
# MT1-MMP act inh RFP = also measured in MT1-MMP act inh; calls as there; RFP signal change, %; measured here: RFP expression control read;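 0 = vehicle wells; hits needed this value within 50% of zero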
# Active calls of the source: *; i = inactive; . = not tested or not shown.
SMILES,MT1-MMP act inh,MT1-MMP act inh RFP,UUG fidelity,CSC inhib,eIF4H FP inh,Rce1 inhib,PABP polyA inh,Env fusion inh,others
O=S(=O)(Nc1ccc(O)cc1)c1cccc2cccnc12,-3,1,-10,-6,-3,i,-5,2,
O=C(c1cccs1)N1CCc2ccccc2C1,4,1,.,-7,-3,i,-12,-1,
COc1ccccc1CN1CC(C(=O)N(C)Cc2ccncc2C)CCC1=O (centres undefined),-3,-2,-16,-8,-1,.,-7,-26,
OC[C@@H]1CN(Cc2ccc(-c3ccccc3)cc2)C[C@H](n2cnc3c(Nc4ccccc4)ncnc32)O1,-9,-29,7,.,.,.,.,14,
O=C(c1cc2c(s1)-c1ccccc1S(=O)(=O)C2)N1CCN(Cc2ccccc2)CC1,-7,-27,-15,17,0,i,1,37,
O=C(CCc1nnc(CCCCc2ccccc2)o1)N1CCN(CCO)CC1,-3,1,-5,-5,14,i,0,-18,
O=C(Cc1ccsc1)NCC(=O)Nc1ccccc1Br,0,0,-18,-9,.,.,.,.,
CCCCCn1c(CNC(=O)CCC)nc2ccccc21,3,3,-22,-11,-2,i,-1,28,
COc1ccc(C(C)NC(=O)c2ccccc2Cl)cc1OC (centres undefined),5,8,0,.,3,i,-8,.,
O=C(c1cc(-c2cccs2)on1)N1CCCCC1,3,1,-16,6,-14,i,-5,-67,
COCCNc1nnc(SCC(=O)c2cc(C)n(C3CC3)c2C)s1,1,4,-26,.,.,.,.,5,
C=CC[C@@H](CC(=O)N(CCO)Cc1ccccc1)C(=O)NCCOC(=O)[C@H](CC=C)CC(=O)OC(C)(C)C,-1,0,13,-3,.,.,.,-40,
CC(C)NCC(O)COc1ccc2c(c1)CCC2 (centres undefined),4,4,-1,-7,-3,i,-2,-6,
NC(Cc1c[nH]c2ccccc12)C(=O)Nc1ccccc1 (centres undefined),0,-1,-18,-3,.,i,.,.,
CCOc1ccc(S(=O)(=O)N(CC(=O)N/N=C/c2ccc(-c3ccc([N+](=O)[O-])cc3)o2)c2ccccc2)cc1,2,-14,19,57,79*,i,22*,.,eIF4H FP inh retest=98*;PABP polyA inh retest=80*
CCOC(=O)c1sc2nc(C)nc(NCCc3ccccn3)c2c1C,2,-1,.,2,1,i,-9,16,
COc1ccc(CCNC(=O)C2CCN(C(=O)c3ccc(Cl)cc3)CC2)cc1OC,0,-3,-10,-2,13,i,-1,17,
CCN1CCN(c2nc3c(c(=O)[nH]c(=O)n3C)n2CCSc2nc3ccccc3s2)CC1,-7,3,-7,-13,-3,i,0,-9,
COc1ccc(Nc2ncnc3sc(-c4ccccc4)cc23)c(OC)c1,1,1,.,38,-4,i,-2,0,
COc1ccc(CNCCC(c2ccc(OC)cc2)c2ccccc2OC)cc1 (centres undefined),-4,0,-8,14,10,i,-12,37,
C[C@H](NC(=O)[C@@H]1CCC(=O)N1Cc1ccco1)c1ccccc1,-1,0,.,-2,89,i,3,-14,eIF4H FP inh retest=32;PABP polyA inh retest=18
Cc1ccc(C)c(S(=O)(=O)c2c(C)cc(C)nc2Cl)c1,4,2,-13,-11,-3,i,-3,15,
COC(=O)c1cc(NC(=O)CN2CCC(C(N)=O)(N3CCCCC3)CC2)cc(C(=O)OC)c1,2,4,-1,-9,2,i,-2,.,
CC1CN(Cc2cc(=O)oc3cc(O)c(Cl)cc23)CC(C)O1 (centres undefined),-1,-1,-1,-16,1,i,2,1,
CCCn1nc(NC(=O)CC)c2cc3cccc(C)c3nc21,0,-1,.,-3,-4,i,12,25,
COC(=O)C1=C(C)Nc2nc3ccccc3n2C1c1ccccc1F (centres undefined),1,-1,1,12,-2,i,0,13,
CSc1ccc(CN(C)C(=O)c2ccc(S(=O)(=O)Nc3ccccc3)cc2)cc1,2,-16,10,-5,.,i,.,24,
CC1(C)Cc2c(sc3c2c(=N)n(Cc2ccco2)c(=O)n3Cc2ccc(F)cc2)CO1,-8,-6,-17,-1,-5,.,20,.,
CCCOc1ccc(/C=N/Nc2ccccc2[N+](=O)[O-])c(O)c1,15,0,.,.,4,i,-2,-78,
S=C(NCCCn1ccnc1)Nc1cccc(Cl)c1,3,-4,-21,-6,4,i,9,-16,
C#CCN1C=CC(=O)[C@@H](OC(=O)NCCC)[C@H]1c1ccccc1Br,1,2,-15,.,.,.,.,-2,
Cc1cnc2ccc(F)cc2c1,3,3,-7,.,.,.,.,-7,
COc1ccc(Br)cc1S(=O)(=O)Nc1cccc(C)n1,-1,3,.,-1,7,i,7,3,
O=C(COC(=O)CC1CC2CCC1C2)Nc1ccc(F)cc1Cl (centres undefined),1,8,-13,-17,.,.,.,-8,
COc1ccc(Cl)cc1C(=O)Nc1ccc(OCC(=O)N2CCOCC2)cc1,.,.,-4,1,5,i,-9,1,
CCOc1cc(S(=O)(=O)n2c(C)nc3ccccc32)ccc1F,3,-1,14,4,-10,i,6,.,
CN(Cc1c(C(=O)N/N=C/c2ccc(F)cc2)nnn1-c1nonc1N)C1CCCCC1,-3,2,-14,-22,-13,i,-3,1,
Cc1ccc(CC(=O)Nc2ccc(S(=O)(=O)Nc3ncccn3)cc2)cc1,2,4,-8,-14,9,i,-1,-7,
Cc1cc(C)cc(Nc2c(F)c(F)c(F)c(F)c2C(=O)O)c1,-3,-4,.,.,2,i,8,0,
COc1ccc(CNC(=O)c2ccc(-c3cnn(C)c3)c3ccoc23)cc1OC,4,1,-5,.,.,.,.,15,
O=C(N/N=C/c1ccc2c(c1)OCO2)c1ccc(Cl)cc1Cl,-2,1,-14,19,4,i,-5,-13,
CCc1c(C)nc2c(C)cccc2c1SCCC#N,-3,-1,.,-7,-9,i,-7,36,
COc1ccc2c(c1)c(=O)oc1c(C)c(OCC(=O)N3CCc4ccccc4C3)ccc12,-4,2,13,6,-2,i,0,.,
C/C(CC(=O)Nc1ccc2c(c1)OCCO2)=N\NC(=O)COc1ccc(C)cc1Br,5,5,0,-3,6,i,4,7,
COC(=O)c1[nH]c(C)c(/C(O)=C2\C(=O)C(=O)N(CCN3CCOCC3)C2c2ccccc2OC)c1C (centres undefined),-3,1,-15,-8,-3,i,-2,24,
CC(C)(C)OC(=O)C[C@@H]1C/C=C\C[C@H](CC(=O)NCCO)C(=O)N[C@H](Cc2ccccc2)COC1=O,-2,2,-3,.,.,.,.,-23,
CC1CCN(C(=O)CSc2nncn2-c2ccccn2)CC1,5,4,-16,-12,-8,i,-13,-45,
O=C(Oc1cccc(-n2cnnn2)c1)C1CCCCC1,-2,-2,7,-4,5,i,-8,-18,
COc1cc(Cl)c(CC(=O)c2c[nH]c3ccccc23)cc1OC,-6,-15,-8,-5,9,i,3,19,
COCCn1c(SCC(=O)NCC2CCCO2)nc2c([nH]c3ccccc32)c1=O (centres undefined),-3,0,-17,4,-3,i,7,13,
O=C(CSc1nc2ccccc2o1)Nc1nc2ccccc2s1,-6,2,-9,-6,-3,i,1,-154,
CCN(c1ccccc1C(=O)O)S(=O)(=O)c1ccc2[nH]c(=O)[nH]c2c1,5,7,-9,-2,-8,i,5,7,
COc1ccc(NC(=O)CSc2nc(C)cs2)cc1OC,4,5,-19,-12,0,i,-6,.,
C#CCOCCOCCOCCNc1nc(N2CCN(C(=O)[C@H](CCC(=O)O)n3cc([C@@H](N)CC(N)=O)nn3)CC2)nc(N2CCN(C(=O)[C@H](CCC(=O)O)n3cc([C@@H](N)CC(N)=O)nn3)CC2)n1,1,3,1,-6,.,.,.,-4,
O=C(NCc1nnc(SCC(=O)N2CCCc3ccccc32)n1-c1ccccc1)c1cccc2ccccc12,1,-6,.,-5,-12,i,-5,.,
CCCn1c(N)c(C(=O)CSc2nc(C3CC3)n(-c3ccccc3)n2)c(=O)[nH]c1=O,-3,-1,-13,-6,.,.,.,11,
O=C(Nc1nnc([C@H]2C[C@H](O)[C@@H](CO)O2)s1)c1ccccc1F,3,3,5,.,.,.,.,20,
Cc1ccc(S(=O)(=O)N(C)Cc2cc3ccccc3[nH]c2=O)cc1,2,-3,-9,-4,-8,i,2,-38,
OC(CN1CCN(c2ccccc2Cl)CC1)c1ccccc1 (centres undefined),-1,1,-11,3,-4,i,-1,-23,
COc1ccc(CCNS(=O)(=O)CCNC(=O)c2ccc(OC)cc2)cc1,-1,-2,-10,.,.,i,.,5,

# Quoted from the entries so far (14 entries):
SMILES,MT1-MMP act inh,MT1-MMP act inh RFP,UUG fidelity,CSC inhib,eIF4H FP inh,Rce1 inhib,PABP polyA inh,Env fusion inh,others
C/C(CC(=O)Nc1ccc2c(c1)OCCO2)=N\NC(=O)COc1ccc(C)cc1Br,5,5,0,-3,6,i,4,7,
COC(=O)c1[nH]c(C)c(/C(O)=C2\C(=O)C(=O)N(CCN3CCOCC3)C2c2ccccc2OC)c1C (centres undefined),-3,1,-15,-8,-3,i,-2,24,
CC(C)(C)OC(=O)C[C@@H]1C/C=C\C[C@H](CC(=O)NCCO)C(=O)N[C@H](Cc2ccccc2)COC1=O,-2,2,-3,.,.,.,.,-23,
CC1CCN(C(=O)CSc2nncn2-c2ccccn2)CC1,5,4,-16,-12,-8,i,-13,-45,
O=C(Oc1cccc(-n2cnnn2)c1)C1CCCCC1,-2,-2,7,-4,5,i,-8,-18,
COc1cc(Cl)c(CC(=O)c2c[nH]c3ccccc23)cc1OC,-6,-15,-8,-5,9,i,3,19,
COCCn1c(SCC(=O)NCC2CCCO2)nc2c([nH]c3ccccc32)c1=O (centres undefined),-3,0,-17,4,-3,i,7,13,
O=C(CSc1nc2ccccc2o1)Nc1nc2ccccc2s1,-6,2,-9,-6,-3,i,1,-154,
CCN(c1ccccc1C(=O)O)S(=O)(=O)c1ccc2[nH]c(=O)[nH]c2c1,5,7,-9,-2,-8,i,5,7,
COc1ccc(NC(=O)CSc2nc(C)cs2)cc1OC,4,5,-19,-12,0,i,-6,.,
C#CCOCCOCCOCCNc1nc(N2CCN(C(=O)[C@H](CCC(=O)O)n3cc([C@@H](N)CC(N)=O)nn3)CC2)nc(N2CCN(C(=O)[C@H](CCC(=O)O)n3cc([C@@H](N)CC(N)=O)nn3)CC2)n1,1,3,1,-6,.,.,.,-4,
O=C(NCc1nnc(SCC(=O)N2CCCc3ccccc32)n1-c1ccccc1)c1cccc2ccccc12,1,-6,.,-5,-12,i,-5,.,
CCCn1c(N)c(C(=O)CSc2nc(C3CC3)n(-c3ccccc3)n2)c(=O)[nH]c1=O,-3,-1,-13,-6,.,.,.,11,
O=C(Nc1nnc([C@H]2C[C@H](O)[C@@H](CO)O2)s1)c1ccccc1F,3,3,5,.,.,.,.,20,

# Remaining list, next part:
SMILES,MT1-MMP act inh,MT1-MMP act inh RFP,UUG fidelity,CSC inhib,eIF4H FP inh,Rce1 inhib,PABP polyA inh,Env fusion inh,others
CS(=O)(=O)N1N=C(c2ccco2)CC1c1ccccc1Cl (centres undefined),-4,-1,.,-8,-7,i,-7,-56,
Cn1cccc1C1CCCN1CC(=O)Nc1c(Cl)cc(Cl)cc1Cl (centres undefined),-3,-1,-8,7,.,.,.,-4,
CCOC(=O)C1(Cc2ccccc2C)CCCN(C(=O)CSC)C1 (centres undefined),3,1,2,-11,.,i,.,11,
O=C(CCN1CCN(c2ccccc2)CC1)c1ccc(Cl)cc1,-3,0,-9,17,6,i,1,-2,
CC(C)(C)c1ccc(OCCn2nc(C(=O)O)c3ccccc3c2=O)cc1,4,-4,4,-9,-3,i,7,31,
Cc1ccc(C2C(C(=O)c3sc(-c4ccccc4)nc3C)=C(O)C(=O)N2CCN(C)C)o1 (centres undefined),17,10,-2,.,.,.,.,-91,
Cc1cccc(NC(=O)c2c(F)c(F)c(F)c(F)c2F)c1,-13,-1,-14,-6,1,i,5,-30,

# Only part of the results is shown; rates above refer to the full screens.
